From PubChem
GLA inh pH 4.5: inhibitors of human alpha-galactosidase A at pH 4.5 | 230,000 tested, under 10 active | activity change, negative = inhibition, % at 105 µM | P06280 | AID 1467 | purified enzyme, 4-MU-alpha-Gal fluorescence, pH 4.5; inconclusive = small, poorly fitted or top-dose-only inhibition, or a rising curve; inactive = flat fitted curve, though single readings scatter; no compound was filed as active;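 also: 0% = full activity with enzyme and -100% = basal without enzyme; dose as in the result columns while the protocol names 77 µM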
Target sequence (P06280 whole entry, looked up): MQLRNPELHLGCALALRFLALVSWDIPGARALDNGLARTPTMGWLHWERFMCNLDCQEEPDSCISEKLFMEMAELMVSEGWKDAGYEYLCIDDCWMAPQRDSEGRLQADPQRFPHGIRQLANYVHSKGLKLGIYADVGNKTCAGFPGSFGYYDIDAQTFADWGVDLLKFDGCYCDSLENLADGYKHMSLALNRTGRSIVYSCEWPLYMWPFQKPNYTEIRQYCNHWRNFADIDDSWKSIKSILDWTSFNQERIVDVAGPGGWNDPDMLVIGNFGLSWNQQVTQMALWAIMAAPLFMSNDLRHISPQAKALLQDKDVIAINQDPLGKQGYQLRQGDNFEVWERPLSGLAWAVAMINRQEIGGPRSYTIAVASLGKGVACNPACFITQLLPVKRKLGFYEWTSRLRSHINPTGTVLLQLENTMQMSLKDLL
Rango complex inh: inhibitors of Rango-importin beta complex formation; Rango CFP/YFP FRET sensor + importin beta, 45 min; Potency, µM (top dose mostly 92.2 µM), for the others: top-dose inhibition of complex formation; hit rate 0.031% among 340,000; active = rising FRET ratio curve, often small or poorly fitted; inconclusive = mostly compound fluorescence or quenching in the first reads; inactive = flat curves in all reads;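 also: potency is read from the fitted curve at half-maximal effect; 0% = DMSO wells and 100% = buffer wells lacking importin beta; nearly all actives have a fitted effect of over 15% in size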
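Inhibition scored from the CFP 486 nm/YFP 530 nm FRET ratio 45 min after adding 0.125 microM importin beta to 50 nM Rango biosensor preincubated 5 min with compound (room temperature, PBS with DTT, Tween-20, BSA). No-importin wells as positive control.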
Rango release inh: inhibitors of RanGTP-induced Rango-importin beta complex dissociation | O95149+P62826 | Biochemical FRET Rango-importin beta, RanGTP-induced dissociation | Potency, µM (series often up to 46.1 µM), inactives show top-dose activity change, negative = inhibition | hit rate 0.071% among 340,000; active means falling FRET ratio curve, often poorly fitted, with flat reads before Ran was added; inconclusive means other falling curves, or compound fluorescence or quenching; inactive means flat or rising ratio curve;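 also: potency is read from the fitted curve at half-maximal effect; % of control where 0% means no effect; nearly all actives have a fitted effect of over 45% in size; -100% = wells without RanGTP and RCC1; the record marks most hits as doubtful in a second field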
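Recombinant Rango FRET biosensor (EYFP–snurportin 1 IBB–cerulean CFP10) at 0.1 uM premixed with 0.25 uM importin beta in PBS, 1 mM DTT, 0.02% Tween-20, 0.1% BSA. Compound added 5 min; RanGTP-RCC1 (0.6 uM Ran, 2 mM GTP, 0.2 uM RCC1) then triggers release, read at 45 min.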
miR-21 reporter: raises the signal of a miR-21 reporter | HeLa miR-21 FLuc reporter, luciferase, 48 h | Potency, µM (doses to about 38.3 µM), for the others: top-dose reporter change, positive = more light | 340,000 tested, under 10 active | AID 2288; active = well fitted rising curve with a large enough effect; inconclusive = small, poorly fitted or top-dose-only effect; inactive = no such curve, though single readings can be large or run the other way;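 also: % of control where 0% means no effect; miR-21 action dims this reporter so a rising signal means less miR-21 action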
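HeLa miR-21-FLuc reporter line, endogenous miR-21; 2000 cells/well in DMEM/10% FBS; compound titration up to ~40uM final, 48 h, 37 degree Celsius; luciferase detection reagent, 15 min lysis, CCD luminescence.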
Numbers without * were called inactive; & = joins results of further samples. An excerpt. The share of hits here may be higher or lower than overall.

Cc1cc(N2CCN(C)CC2)n2nc(-c3ccc(Cl)cc3)nc2n1 was read as GLA inh pH 4.5 1, Rango complex inh 0.4%, Rango release inh -5% and miR-21 reporter -7%.
For COc1cccc(CSc2nnc(-c3ccco3)n2C)c1 the results were GLA inh pH 4.5 1, Rango complex inh 0.9%, Rango release inh -9% and miR-21 reporter -24%.
`CCC(C)(C)n1nnnc1C(c1cc2cc(C)ccc2[nH]c1=O)N1CCCC1` (stereo not given) gave GLA inh pH 4.5 -3, Rango complex inh inconclusive, Rango release inh -17% and miR-21 reporter -6%.
`Cn1c(COc2ccc(Br)cc2)nnc1SC1CCc2ccccc2C1=O` (stereo not given) gave GLA inh pH 4.5 -2, Rango complex inh 1.5%, Rango release inh 1% and miR-21 reporter 8%.
For Cc1nn(C)cc1CNC(=O)c1cccc(F)c1 the results were GLA inh pH 4.5 -2, Rango complex inh -2.1%, Rango release inh 1% and miR-21 reporter 0%.
CCN(CC)C1Oc2cc3c(cc2C(c2cc(OC)c(O)c(OC)c2)C1C)OCO3 (stereo not given) was read as Rango complex inh -1.5% and Rango release inh 0%.
For CC(=O)c1ccc(NC(=O)c2ccc(S(=O)(=O)N3CCCC3)cc2)cc1 the results were GLA inh pH 4.5 3, Rango complex inh 0.1%, Rango release inh 11% and miR-21 reporter 0%.
`NNC(=O)c1sccc1OCc1ccc(Cl)cc1Cl` gave GLA inh pH 4.5 0, Rango complex inh 4.3%, Rango release inh 1% and miR-21 reporter -11%.
CCOC(=O)c1c(S(=O)(=O)Nc2ccc(CN3CCC(C)CC3)cc2)c(C)n(C)c1C was read as Rango complex inh 0.8%, Rango release inh -4% and miR-21 reporter -1%.
For COC(=O)c1nc(-c2ccccc2)oc1N1CCOCC1 the results were GLA inh pH 4.5 12, Rango complex inh -4.9%, Rango release inh -11% and miR-21 reporter 5%.
Screening Cc1c[n+]([O-])n(-c2ccc(C(=O)O)cc2)n1 returned GLA inh pH 4.5 3, Rango complex inh -0.1%, Rango release inh 3% and miR-21 reporter -3%.
`CCOC(=O)C1=C(C)NC(=O)NC1c1ccc(F)cc1` (stereo not given) gave GLA inh pH 4.5 -9, Rango complex inh 2.3%, Rango release inh -2% and miR-21 reporter -1%.

Reprinted from the results shown (two entries):
`CCC(C)(C)n1nnnc1C(c1cc2cc(C)ccc2[nH]c1=O)N1CCCC1` (stereo not given) gave GLA inh pH 4.5 -3, Rango complex inh inconclusive, Rango release inh -17% and miR-21 reporter -6%.
`Cn1c(COc2ccc(Br)cc2)nnc1SC1CCc2ccccc2C1=O` (stereo not given) gave GLA inh pH 4.5 -2, Rango complex inh 1.5%, Rango release inh 1% and miR-21 reporter 8%.

New compounds follow.
Screening O=C(N/N=C/c1ccc(F)cc1)c1cc[n+]([O-])cc1 returned Rango complex inh 1.9%, Rango release inh -16% and miR-21 reporter -2%.
`N=C1C(c2nc3ccccc3s2)=C(O)CN1c1ccccc1` gave GLA inh pH 4.5 7, Rango complex inh -3.1%, Rango release inh 3% and miR-21 reporter -13%.
`O=C(N/N=C/C(Br)=C/c1ccccc1)c1cccnc1` gave GLA inh pH 4.5 -2, Rango complex inh 2.0%, Rango release inh 1% and miR-21 reporter inconclusive.
Screening COc1ccc(CCN(C(=O)COc2ccccc2)c2nc(-c3ccccc3)cs2)cc1OC returned GLA inh pH 4.5 -14, Rango complex inh 0.0%, Rango release inh 3% and miR-21 reporter -3%.
N#Cc1ccccc1NC(=O)CN1CCN(Cc2ccccc2)CC1 was read as Rango complex inh -0.9%, Rango release inh 9% and miR-21 reporter -6%.
Screening O=C(Nc1ccc(Cl)cc1)N1CCSc2ccccc21 returned GLA inh pH 4.5 11, Rango complex inh 0.2%, Rango release inh 2% and miR-21 reporter -15%.
Cn1cc([N+](=O)[O-])c(C(=O)Nc2sc3c(c2C#N)CCC3)n1 was read as Rango complex inh 1.1%, Rango release inh 4% and miR-21 reporter -5%.
For COc1cc2ccccc2cc1C(=O)Nc1ccccc1C the results were Rango complex inh -3.4%, Rango release inh -14% and miR-21 reporter -62%.
Screening CC1CCCCC1NC(=O)Cn1cnc2ccccc2c1=O (stereo not given) returned GLA inh pH 4.5 3, Rango complex inh -5.2%, Rango release inh 24% and miR-21 reporter -6%.
Screening CC1(OC(=O)c2cccs2)C(=O)C=C2C=C3CCCN3C=C2C1=O (stereo not given) returned GLA inh pH 4.5 1&-22, Rango complex inh -3.7%, Rango release inh -17% and miR-21 reporter 6%.
COc1ccc([N+](=O)[O-])cc1NC(=O)Cc1ccccc1Cl was read as GLA inh pH 4.5 -2, Rango complex inh 0.3%, Rango release inh 1% and miR-21 reporter 0%.
COc1cc(OC)c(OC)cc1/C=N/Nc1nc2ccccc2[nH]1 was read as GLA inh pH 4.5 -21, Rango complex inh -0.2%, Rango release inh 12% and miR-21 reporter -5%.
O=C(COc1ccc([N+](=O)[O-])cc1Cl)N1CCOCC1 was read as GLA inh pH 4.5 7, Rango complex inh -1.4%, Rango release inh 4% and miR-21 reporter -3%.
`Cc1ccc(S(=O)(=O)CCSc2nc(C)cc(C)c2C#N)cc1` gave GLA inh pH 4.5 3, Rango complex inh inconclusive, Rango release inh 19% and miR-21 reporter -1%.
Screening CCCCN(CCCC)S(=O)(=O)c1ccc(NC(=O)Cc2cccs2)cc1 returned GLA inh pH 4.5 4, Rango complex inh -1.2%, Rango release inh -10% and miR-21 reporter 14%.
Screening COC(=O)Nc1nn(-c2ccc(OC)cc2)c(=O)c(C#N)c1C returned GLA inh pH 4.5 0, Rango complex inh 0.6%, Rango release inh -4% and miR-21 reporter 0%.
For Cn1cc(CNCc2ccccc2OCC(O)CN2CCc3ccccc3C2)cn1 (stereo not given) the results were GLA inh pH 4.5 3, Rango complex inh -2.0%, Rango release inh 0% and miR-21 reporter -3%.
Screening CC1=C(C(=O)NCc2ccc(Cl)cc2)C2(CCC(C)CC2)OC1=O (stereo not given) returned GLA inh pH 4.5 -8, Rango complex inh -1.0%, Rango release inh 2% and miR-21 reporter 8%&14%.
For Cc1cc(=O)oc2c3c(cc(OCC(=O)NCCN4CCOCC4)c12)OC(C)(C)CC3 the results were Rango complex inh 1.6%, Rango release inh -11% and miR-21 reporter -5%.
`COc1ccc(-c2nc(N)n(S(=O)(=O)c3ccc(C)cc3)n2)cc1` gave GLA inh pH 4.5 -7, Rango complex inh -3.2%, Rango release inh -11% and miR-21 reporter -13%.
`CC(C)C(c1nnnn1C1CCCCC1)N1CCN(C(=O)c2ccco2)CC1` (stereo not given) gave Rango complex inh 0.5%, Rango release inh -3% and miR-21 reporter -2%.
COc1ccc(O)c(/C=N/N2CCCCC2)c1 was read as Rango complex inh inconclusive, Rango release inh 1% and miR-21 reporter -64%.
Screening O=C1CN(C(=O)CSc2ccccn2)c2ccccc2N1 returned Rango complex inh inconclusive and Rango release inh -22%.
`Cc1ccc(C(=O)CCC2CCCCC2=O)cc1` (stereo not given) gave GLA inh pH 4.5 9, Rango complex inh 8.3%, Rango release inh 5% and miR-21 reporter -60%.
Screening COc1ccc(OC)c(NC(=O)c2cc3oc4ccccc4c3cc2O)c1 returned GLA inh pH 4.5 3, Rango complex inh -5.6%, Rango release inh -24% and miR-21 reporter -2%.
Cc1c(NC(=O)CN2CCCC(C)C2)ccc2nsnc12 (stereo not given) was read as GLA inh pH 4.5 3, Rango complex inh -5.4%, Rango release inh 7% and miR-21 reporter -5%.
For Cc1ccc(NC(=S)NNC(=O)c2cccc([N+](=O)[O-])c2)cc1Cl the results were GLA inh pH 4.5 -5, Rango complex inh 1.6%, Rango release inh 2% and miR-21 reporter -32%.
For CC(C)C(=O)NCCc1nc(-c2ccccc2Cl)no1 the results were Rango complex inh inconclusive and Rango release inh -9%.
COc1ccc(CCC(=O)Nc2ccc(Br)cn2)cc1 was read as GLA inh pH 4.5 0, Rango complex inh -3.5%, Rango release inh 2% and miR-21 reporter -6%.
`O=C(COc1ccc([N+](=O)[O-])cc1)NNC(=O)Nc1ccccc1F` gave Rango complex inh 1.0%, Rango release inh 3% and miR-21 reporter -10%.
O=C(NCC1CC1)C1(C(F)(F)F)CC(CCc2ccccc2)CCCO1 (stereo not given) was read as Rango complex inh -2.7% and Rango release inh -12%.
Screening O=C(Nc1ccccc1)c1cc2ccccc2[nH]1 returned GLA inh pH 4.5 9, Rango complex inh -3.8%, Rango release inh -4% and miR-21 reporter -46%.
Screening COc1ccc(/C=C2\C(=O)ON=C2c2cccc([N+](=O)[O-])c2)cc1 returned GLA inh pH 4.5 -3 and miR-21 reporter 3%.
Screening COCCn1nnnc1CN(CCc1ccccc1)Cc1cc2cc(OC)ccc2[nH]c1=O returned Rango complex inh inconclusive and Rango release inh inconclusive.
`Cc1ccccc1Nc1nc(N)nc(COC(=O)c2ccc([N+](=O)[O-])o2)n1` gave Rango complex inh -4.2% and Rango release inh 5%.
COC(=O)C1(C)Cc2cc(OC(C)=O)c(OC(C)=O)cc2N1 (stereo not given) was read as GLA inh pH 4.5 0 and miR-21 reporter 11%.
Screening COc1ccc(N2CCN(C(=O)COC(=O)c3ccc(-n4nc(C)cc4C)cc3)CC2)cc1 returned Rango complex inh -0.4% and Rango release inh 4%.
Screening Cc1cc(=O)[nH]c(N/N=C/c2ccc(C)o2)n1 returned GLA inh pH 4.5 4, Rango complex inh 1.5%, Rango release inh 24% and miR-21 reporter -18%.
For Cc1nn(Cc2ccc(F)cc2)c(C)c1NC(=O)c1noc2c1CCc1ccccc1-2 the results were GLA inh pH 4.5 -12, Rango complex inh 2.6%, Rango release inh -7% and miR-21 reporter 8%&0%.
`CCc1ccc(Nc2nnc(SCC(=O)NCCN3C(=O)CSC3=O)s2)cc1` gave GLA inh pH 4.5 4, Rango complex inh 5.4%, Rango release inh -18% and miR-21 reporter -23%.
For Cc1ccc(-n2c(N)c(C(=O)N3CCN(C)CC3)sc2=S)cc1 the results were GLA inh pH 4.5 -2, Rango complex inh -0.3%, Rango release inh 1% and miR-21 reporter -6%.
Screening Nc1nc(SCc2ccc(Br)cc2)[nH]c(=O)c1-c1ccccc1 returned GLA inh pH 4.5 -1, Rango complex inh 8.8%, Rango release inh -8% and miR-21 reporter -9%.
Cc1ccccc1-n1ncc2c1CC(C)(C)CC2NC(=O)CSc1ccncc1 (stereo not given) was read as Rango complex inh -1.4%, Rango release inh -4% and miR-21 reporter -5%.
NC(=S)Nc1cccc2cnccc12 was read as GLA inh pH 4.5 9, Rango complex inh 2.4%, Rango release inh 6% and miR-21 reporter -1%.
`CCOc1ccc(N=c2oc3cc(O)ccc3cc2C(=O)NCC2CCCO2)cc1` (stereo not given) gave GLA inh pH 4.5 17, Rango complex inh inconclusive, Rango release inh inconclusive and miR-21 reporter -7%.
`COc1ccc(N2CCN(CCNC(=O)c3nnc(Cc4c(F)cccc4Cl)o3)CC2)cc1` gave GLA inh pH 4.5 inconclusive, Rango complex inh -0.2%, Rango release inh 2% and miR-21 reporter 1%.
Screening N#C/C(C(=O)N1CCCCC1)=C1/N=C(NC(=O)c2ccc(F)cc2)c2ccccc21 returned Rango complex inh 3.0%, Rango release inh 1% and miR-21 reporter -8%.
For O=C(C1CCN(c2nnc(N3CCCC3=O)s2)CC1)N1CCN(c2cccc(C(F)(F)F)c2)CC1 the results were Rango complex inh 7.5%, Rango release inh 8% and miR-21 reporter 1%.
Screening N#C/C(=C\c1cccn1-c1ccccc1)C(=O)NC1CCCCC1 returned GLA inh pH 4.5 -3, Rango complex inh 2.4%, Rango release inh -4% and miR-21 reporter 16%.
Screening CC(=O)Nc1nc2c(s1)C(=O)NCC(C)(C)C2 returned GLA inh pH 4.5 -3, Rango complex inh -0.5%, Rango release inh 13% and miR-21 reporter -7%.
Screening Cc1cnc(C(=O)OC(C)C(=O)Nc2ccc3c(c2)OCCO3)cn1 (stereo not given) returned Rango complex inh 4.0%, Rango release inh 4% and miR-21 reporter 0%.
Screening CCN(CC)C1CCN(C(=O)c2cc(COc3ccccc3SC)on2)C1 (stereo not given) returned Rango complex inh -2.1%, Rango release inh -18% and miR-21 reporter -5%.
O=C(c1noc2c1CCCC2)N1CCc2c([nH]c3ccccc23)C1c1ccccn1 (stereo not given) was read as GLA inh pH 4.5 -9, Rango complex inh inconclusive, Rango release inh -10% and miR-21 reporter -13%.
For O=C(O)c1ccccc1C(=O)NCCCCCCNC(=O)c1ccccc1C(=O)O the results were Rango complex inh 3.4%, Rango release inh 7% and miR-21 reporter 0%.
